Compound activity (PubChem)
Sa RN4220 lethal: kills Staphylococcus aureus RN4220; S. aureus RN4220 growth, OD600, 16 h; inhibition, % (no concentration beside the values); 330,000 compounds, 0.33% hits;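 active = z-score of -3 or lower and OD600 up to 0.18 on both plates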;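 note: plate controls were untreated cells for no effect and reference antibiotic for full effect; stock transfer was 100 nL into about 80 µL; one replicate is shown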
Sa ugtP lethal: growth inhibition of S. aureus ugtP deletion strain; S. aureus RN4220 ugtP deletion, OD600 growth, 16 h; some inactives read as strong as hits; growth inhibition, % (no concentration beside the values); 330,000 compounds, 0.54% hits; AID 1259309;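 active = z-score under -3 and OD600 up to 0.15 on both plates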;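 note: plate controls were untreated wells for no effect and antibiotic for full effect; wells of about 80 µL received 100 nL stock; the first replicate is given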
Mtb hypoxia rep: inhibitors of hypoxia-regulated fluorescent reporter in Mycobacterium tuberculosis. AID 1159583. M. tuberculosis hypoxia-regulated fluorescent reporter, fluorescence. fluorescence inhibition, % (no concentration beside the values). 300,000 compounds, 0.1% hits;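 active = 35 to 45% if threefold the growth effect, above 45% if 1.5-fold the growth effect; inactive = the rest, general growth blockers included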;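 note: wells of about 50 µL received 100 nL stock; 0% = vehicle wells and 100% = reference inhibitor wells; whole bacteria with a GFP reporter of the hypoxia response; strong numbers were not always called active; many hits fall short of the cut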
Bead autofluor: flagged as autofluorescent in microsphere protease counterscreen | fluorescence intensity (no concentration beside the values) | compound autofluorescence counterscreen, microsphere flow cytometry; active compounds read high | 360,000 compounds, 3.1% hits;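 active = at least 3 SD above the mean of all compounds, about 16000 in these data; inconclusive = too few beads counted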;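 note: 100 nL of 1 mM stock went into each well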
BJeLR viability: BJeLR cell viability loss | BJeLR (HRASV12) viability, CellTiter-Glo ATP luminescence, 48 h; reference of the scale not given here | inhibition, % (no concentration beside the values) | 300,000 compounds, 0.17% hits | AID 1554;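 active = replicate mean above 50%; inconclusive = above 50% but judged a plate artefact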;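 note: 50 nL library stock added to about 25 µL; numbers are from one replicate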
PrP UTR inh: inhibition of PrP 5' UTR reporter expression. inhibition, % (test concentration not listed). AID 488862. cell-based PrP 5' UTR mRNA reporter, plate reader. 340,000 compounds, 0.35% hits;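 active = every replicate at 50% or more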;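 note: 0 = median of the neutral control wells; tested in H4 reporter cells; numbers are from one replicate; inactives centre near -14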
Mtb hypoxia rep growth: also measured in Mtb hypoxia rep; calls as there; growth inhibition, %; measured here: M. tuberculosis growth (absorbance);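 0% = vehicle and 100% = reference antibiotic; read after six days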
* = called active by the depositor; ? = inconclusive; . = not tested or not shown.

SMILES	Sa RN4220 lethal	Sa ugtP lethal	Mtb hypoxia rep	Mtb hypoxia rep growth	Bead autofluor	BJeLR viability	PrP UTR inh
O=c1c2ccccc2nc(SCc2nc3ccccc3s2)n1Cc1ccco1	8.6	5	-1	1	10042	0	-1
COc1ccc(OC)c(CNC(=O)C2CCCN(S(=O)(=O)N3CC(C)CC(C)C3)C2)c1 (configuration not stated)	-0.1	4	5	-2	4531	-2	-15
NC(=O)C(c1ccccc1)C1CCCC1 (configuration not stated)	-1.8	-2	.	.	2272	-1	-1
O=C(Cc1ccccc1[N+](=O)[O-])Nc1ccc2c(c1)OCCO2	5.7	-2	21	-6	2455	3	-69
Cc1ccc(Cn2c(SCC(N)=O)nc3c2c(=O)n(C)c(=O)n3C)cc1	5.8	10	3	9	8394	0	-24
CCCc1cc(=O)n2nc(N3CCC(C(=O)Nc4cccc(C(C)=O)c4)CC3)sc2n1	0.9	2	-2	-3	4460	0	-1
CN1CCN(C(=S)c2ccc(OCC(=O)Nc3cccc(C(F)(F)F)c3)cc2)CC1	-12	-3	15	18	3265	-1	-1
CC(C)(C)OC(=O)NC(CNCc1ccccc1)Cc1ccccc1 (configuration not stated)	4.1	-8	18	10	3821	3	-28
COc1cc(OC)cc(C(=O)NCC(=O)Nc2ccc(-c3ccccc3)cc2)c1	-0.9	7	-4	-2	3681	0	-15
COc1ccc(CNC(=O)COC(=O)c2cc3ccccc3o2)cc1	0.5	2	1	2	?	.	-3
O=C(COc1ccc2ccc(=O)oc2c1)NCCCn1ccnc1	0.4	1	9	11	5330	0	-10
O=C(CSc1nc(C(F)(F)F)cc(=O)[nH]1)NCC1CCCO1 (configuration not stated)	0.6	0	4	-2	6746	8	2
CN(C)S(=O)(=O)N(CC(=O)N(Cc1ccccc1)Cc1ccccc1)c1ccccc1	4.2	-2	5	14	22498*	-5	13
COc1ccc2cc(C(=O)C3CCCN(C4CCOCC4)C3)ccc2c1 (configuration not stated)	12	-2	-14	5	4228	0	-5
C(=C\CSc1nnnn1-c1ccccc1)/CSc1nnnn1-c1ccccc1	11	-8	10	11	20060*	-11	-18
CCOC(=O)N1CCN(S(=O)(=O)N2CCCC(C(=O)NCCCN3CCC(C)CC3)C2)CC1 (configuration not stated)	2.6	6	4	-5	4274	-1	-17
O=C(C1CCN(c2nc3nonc3nc2N2CCCCC2)CC1)N1CCOCC1	2.7	1	0	-7	3824	-5	-16
OC(COc1ccc(CNCCc2ccc(C(F)(F)F)cc2)cc1)CN1CCCCC1 (configuration not stated)	0.0	-7	12	10	4532	13	-14
CC(=O)c1cc(-c2ccc(F)cc2)n(CCC(=O)Nc2cccc(C)n2)c1C	1.8	-6	1	1	1994	-1	-20
COc1ccc(/C=N/NC(=O)CCC(=O)Nc2ccccc2)cc1OC	.	.	.	.	2214	2	-22

5 compounds out of the list, ordered by heavy-atom count, largest number first.
SMILES	Sa RN4220 lethal	Sa ugtP lethal	Mtb hypoxia rep	Mtb hypoxia rep growth	Bead autofluor	BJeLR viability	PrP UTR inh
OC(COc1ccc(CNCCc2ccc(C(F)(F)F)cc2)cc1)CN1CCCCC1 (configuration not stated)	0.0	-7	12	10	4532	13	-14
COc1cc(OC)cc(C(=O)NCC(=O)Nc2ccc(-c3ccccc3)cc2)c1	-0.9	7	-4	-2	3681	0	-15
COc1ccc2cc(C(=O)C3CCCN(C4CCOCC4)C3)ccc2c1 (configuration not stated)	12	-2	-14	5	4228	0	-5
O=C(COc1ccc2ccc(=O)oc2c1)NCCCn1ccnc1	0.4	1	9	11	5330	0	-10
O=C(Cc1ccccc1[N+](=O)[O-])Nc1ccc2c(c1)OCCO2	5.7	-2	21	-6	2455	3	-69

Next results follow.
SMILES	Sa RN4220 lethal	Sa ugtP lethal	Mtb hypoxia rep	Mtb hypoxia rep growth	Bead autofluor	BJeLR viability	PrP UTR inh
COc1ccc(-c2cc3ncc(-c4ccccc4)c(N)n3n2)cc1	3.8	-5	-5	1	4518	5	-53
CC1CN(C2CCCCC2)C(=O)C1CC(=O)NCc1ccccc1 (configuration not stated)	4.8	5	5	4	.	.	.
O=C(O)c1cc(=O)c2cc(Cl)ccc2o1	0.7	0	.	.	2500	2	-30
CCOC(=O)c1cccc(NC(=O)CSc2nnc(-c3ccoc3C)n2CCOC)c1	2.9	5	.	.	4565	20	-13
CC(=O)NC12CC3CC(C1)CC(C(=O)Nc1nc4ccc(S(C)(=O)=O)cc4s1)(C3)C2	-0.1	0	1	11	5109	-4	-17
CCN(CC(=O)Nc1ccccc1C(F)(F)F)C(=O)CCS(=O)(=O)c1ccc(C)cc1	1.1	1	10	-2	5734	-1	-9
Cc1ccc(N2C(=O)C3C4CC(=O)C(c5ccccc54)C3C2=O)cc1 (configuration not stated)	1.9	9	4	-2	9245	-5	-33
CC1CC(C)CN(c2cc(N(C)CCO)c([N+](=O)[O-])c3nonc23)C1 (configuration not stated)	8.7	6	14	14	5027	-41	-24
COc1cccc(N2CC(C(=O)Nc3ccc(C(=O)OC(C)C)cc3)CC2=O)c1 (configuration not stated)	9.1	11	7	10	2365	-4	3
Cc1nc([N+](=O)[O-])cn1CCC#N	2.5	-6	0	10	.	-11	-22
CN1CC(=O)NC1=NC(=O)c1cc(F)c(F)cc1Cl	-12	6	24	-20	2382	-5	-16
COc1ccc(NC(=O)N(CCC(C)C)C(C)c2ccccn2)c(OC)c1 (configuration not stated)	-0.2	12	5	6	5910	3	-8
Cc1ccc(CCSc2ccc(F)cc2)cn1	5.8	6	13	4	6069	-2	.
COc1ccccc1OCCNC(=O)c1ccc(C)c(S(=O)(=O)N2CCOCC2)c1	-0.2	-5	-6	0	5529	6	-7
COc1cccc(N(CC(=O)N2CCCCCC2)S(C)(=O)=O)c1	4.2	7	17	6	3887	-1	-5
Cc1cc(C)cc(N(C(=O)C(F)(F)F)C(C(=O)NC2CCCCC2)c2cccs2)c1 (configuration not stated)	5.1	0	12	5	8191	1	-24
Cc1ccc(N(C(C)C(=O)Nc2ccc(S(=O)(=O)N3CCOCC3)cc2)S(C)(=O)=O)cc1 (configuration not stated)	4.6	7	.	.	2275	-2	-1
Cc1onc(-c2ccccc2Cl)c1C(=O)NCCN1CCOCC1	-0.8	11	.	.	2815	6	-10
CCCC(C)c1oc(=O)cc(O)c1C (configuration not stated)	5.8	3	-3	3	3853	.	-13
COc1ccccc1N1Cc2ccc(OC)c(OC)c2C1=O	-0.1	2	-13	4	3834	-4	5

Results in Sa ugtP lethal and PrP UTR inh, for two of the compounds above:
SMILES | Sa ugtP lethal | PrP UTR inh
COc1ccc(CNC(=O)COC(=O)c2cc3ccccc3o2)cc1 | 2 | -3
O=c1c2ccccc2nc(SCc2nc3ccccc3s2)n1Cc1ccco1 | 5 | -1

Other results.
SMILES	Sa RN4220 lethal	Sa ugtP lethal	Mtb hypoxia rep	Mtb hypoxia rep growth	Bead autofluor	BJeLR viability	PrP UTR inh
Cc1nn(Cc2ccccc2Cl)c(C)c1C(=O)N(C)CC(=O)Nc1cccc(F)c1	-2.0	11	5	-8	7955	.	-11
CCOC(=O)c1sc(N2C(=O)C(O)=C(C(=O)c3ccco3)C2c2cccc([N+](=O)[O-])c2)nc1C (configuration not stated)	3.4	29	1	3	5336	-1	-3
Cc1scc(C(=O)NCc2ccco2)c1-c1ccccc1	4.3	-2	4	11	20412*	-3	14
COCC(C)NC(=O)Cc1ccc(Cl)cc1 (configuration not stated)	0.8	-1	-3	3	2609	5	-22
Cn1c(SCC(=O)NCc2ccccc2)nc2c([nH]c3ccccc32)c1=O	1.1	3	2	-1	.	2	.
OCCC1CN(Cc2cccn2-c2ncccn2)CCN1Cc1ccccc1 (configuration not stated)	-1.1	3	12	3	4341	13	-27
CCOC(=O)CNC(=O)CSc1nnc(Cn2c(=O)sc3ccccc32)n1-c1ccccc1C	0.4	-1	0	6	10632	.	-40
COc1cc2ccccc2nn1	1.6	5	7	-4	6289	-4	-42
COC(=O)c1ccc(C2C(C(=O)c3ccco3)=C(O)C(=O)N2c2cc(C)on2)cc1 (configuration not stated)	6.3	0	16	9	5660	2	-8
O=C(NN=Cc1ccco1)c1ccc(NC(=O)C2CC2)cc1	4.3	3	8	0	.	.	.
CCC(C)NC(=O)CN(c1cc(Cl)ccc1OC)S(C)(=O)=O (configuration not stated)	3.0	9	3	-4	9260	-4	-27
CCOC(=O)c1c(NC(=O)CSc2nc3cc(Cl)ccc3s2)sc(C(C)=O)c1C	3.3	-13	7	3	.	-1	.
CCOC(=O)C1=C(C)N=C2SC(C)C(=O)N2C1c1ccc(C(=O)OC)cc1 (configuration not stated)	-3.9	2	9	5	3859	0	-21
CCc1nnc(NC(=O)C2CCCN(c3nc(C)cc(C)n3)C2)s1 (configuration not stated)	2.4	-7	1	6	18689*	11	-5
CC1(C)CC(=O)CC(=NNC(=O)C2CCN(S(=O)(=O)c3cccs3)CC2)C1	2.7	1	1	-2	.	.	.
CC1CCN(S(=O)(=O)c2ccc(NC(=O)CSc3nnnn3C)cc2)CC1	0.6	0	1	3	23542*	-1	-26
CCOc1cc(C2C3=C(CCCC3=O)OC3=C2C(=O)CCC3)cc([N+](=O)[O-])c1O	5.3	-1	8	8	4272	0	-21
CC(=O)N(CC(=O)Nc1nn(-c2ccccc2)nc1C(N)=O)Cc1ccccc1	2.6	-2	2	10	5757	-11	-29
O=C(O)C1CCCN1C(=O)Nc1ccc(Cl)cc1 (configuration not stated)	1.1	1	-5	10	2113	-1	-23
Cc1nc2ccccc2c2oc(C(=O)N3CCN(c4ccc([N+](=O)[O-])cc4)CC3)cc12	0.0	-3	-3	16	5174	0	6
CS(=O)(=O)N1CCN(c2ncccn2)CC1	2.5	-1	18	12	8661	1	-9
c1cnc(-c2noc(CN3CCN(C4CCCC4)CC3)n2)cn1	-1.9	2	6	0	4218	0	-12
O=C(CN(C(=O)CNS(=O)(=O)c1ccccc1)c1ccc(F)cc1)NCc1ccco1	2.7	14	7	-1	5654	-9	-15
CC1(O)c2ccccc2C(=O)N1Cc1ccccc1 (configuration not stated)	-0.6	-4	0	-5	17655*	1	-9
CC1CCN(C(=O)CSc2ccc(-c3ccc4c(c3)OCCO4)nn2)CC1	4.1	-2	10	3	3514	-7	-28
CC(=O)Nc1ccc(S(=O)(=O)Nc2cccc3cccnc23)cc1	3.1	2	-20	-15	6580	-1	-22
COCCOC(=O)C1=C(C)NC(=S)NC1c1cccs1 (configuration not stated)	0.4	-3	1	5	3961	16	-27
CC(=NNS(=O)(=O)c1ccccc1)c1ccc(Cl)cc1	3.8	-4	7	2	.	.	.
COc1ccc(/C=C2/SC(c3ccc(C)cc3)=NC2=O)cc1OC	11	-4	-8	2	3035	2	-23
COc1cccc(C(=O)NC2CCN(CC(=O)Nc3nccs3)CC2)c1	3.7	8	5	1	4062	-1	-12
Cc1c(C)c(C)c(S(=O)(=O)NCCc2ccccn2)c(C)c1C	4.2	4	5	8	5600	4	-15
CC(Cl)C(=O)Nc1cc(C(C)(C)C)nn1-c1ccccc1 (configuration not stated)	0.5	5	6	15	5193	2	44
Cc1cc(C)cc(NC(=O)Cn2nnc(C(=O)NCCc3ccccc3)c2N)c1	3.6	-6	0	-10	5834	4	-3
CC(=O)c1ccc(S(=O)(=O)N2CCN(C(=O)c3ccc(COc4ccccc4)o3)CC2)cc1	7.2	5	14	7	?	.	-16
CCOC(=O)NC(NC(=O)OCC)C(=O)c1ccc(F)cc1	4.2	13	2	3	7364	-11	-6
O=C(c1ccccc1)c1ccccc1N1C(=O)C=CC1=O	5.0	16	10	6	4278	7	-15
CC1CCCCC1NC(=O)CSc1ccc([N+](=O)[O-])cc1 (configuration not stated)	1.9	2	6	-5	5370	4	-9
Clc1ccc(CNc2ccc(CNc3ncn[nH]3)cc2)c(Cl)c1	1.7	-13	2	1	5838	7	-9
CCN1CCN(CCNC(=O)c2ccc(/C=C3/Sc4ccccc4N(Cc4cccc(Cl)c4)C3=O)cc2)CC1	-5.4	-5	3	-4	5198	-5	-11
COc1ccc2[nH]c(C)c(C(=O)CN(C)CC3OCCO3)c2c1	1.8	4	-1	13	.	7	.
Cc1cc(C)c2[nH]c(=O)c(CN(Cc3ccco3)C(=O)C3CCCO3)cc2c1 (configuration not stated)	-15	-6	10	5	2944	11	-11
O=C1C(=Cc2ccco2)N=C(N2CCCCC2)N1c1ccccc1	4.7	5	3	9	.	.	.
Nc1nc(CSc2ccccn2)nc(Nc2ccccc2)n1	2.7	-8	11	14	10054	-4	-41
